Screening data (PubChem BioAssay)
Mtb H37Rv: Mycobacterium tuberculosis H37Rv growth inhibition, cell based, confirmatory dose response (AID 1949); one-dose inhibition, % at 10 µg/mL; IC50 in µg/mL for titrated hits; actives 1.6% (n = 100,000); M. tuberculosis H37Rv growth inhibition; most inactive calls were filed without a number and no value below 0 was filed;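 active = confirmed in a dose series; inconclusive = about 50% or more but not retested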;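 also: bacteria grown 7 days with compound before Alamar blue readout; 0% = untreated bacteria and 100% = reference antibiotic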
* = called active by the depositor; i = inactive; ? = inconclusive.

Structure	Mtb H37Rv
Cc1ccc(C)c(C2=NNC(=O)CC2)c1	3%
Cc1ccc(C2(CCN)CCOC(C(C)C)C2)cc1 (stereo not drawn)	i
CCOc1ccc(OCc2cccc(C(=O)NC3CCCCC3)c2)cc1	i
Cc1cc(NC(=O)c2ccccc2)cc(C)c1O	i
CCCCN1C2=NC(=O)CN2c2ccccc21	i
Cc1cccc(S(=O)(=O)Nc2ccc(Cl)cc2)c1	i
CN(C)S(=O)(=O)N1CCN(Cc2ccccc2)CC1	i
CCCn1c(SCC(=O)O)nc2ccccc21	i
OCCNCc1cccc(OCc2ccccc2)c1	i
O=C(Nc1ccc(C(F)(F)F)cc1)c1cccnc1N1CCOCC1	i
Fc1ccc(NC(=S)NCCCn2cc(Br)cn2)c(F)c1	i
Cc1occc1C(=O)Nc1sc2c(c1C(N)=O)CCCCCC2	i
COc1ccccc1Oc1ccc(S(=O)(=O)Nc2ccc(C(C)=O)cc2)cc1	i
Cc1cccc(N(CC(=O)Nc2ccccc2-c2ccccc2)S(=O)(=O)c2ccccc2)c1C	8%
COc1ccc(/C=C/c2cc(C(F)(F)F)on2)cc1	9%
CC(C)(C)NC(=O)c1cccc(NC(=O)c2ccc(Cl)cc2Cl)c1	i
COc1ccc(Br)cc1C(=O)NC(=S)Nc1cc(C(=O)O)ccc1C	i
Cc1ccc(C)c(OCCCC(=O)Nc2ccc(F)cc2)c1	4%
CCOC(=O)c1cc(Cc2ccccc2)sc1NC(=S)Nc1ccc2c(c1)OCCO2	i
Cc1ccc(-c2cc(C(=O)NCCN3CCOCC3)c3ccccc3n2)s1	i
Cc1occc1C(=O)NC1CCCc2ccccc21 (stereo not drawn)	4%
O=C1c2ccccc2C(=O)N1CCc1nc2ccccc2c(=O)n1-c1cccc(C(F)(F)F)c1	i
Cc1ccc(NC(=O)c2cccc(NC(=O)c3ccccc3)c2)cc1Cl	i
CC1(C(=O)NCc2cccs2)CC1(Cl)Cl (stereo not drawn)	i
CCOCCCNC(=O)c1ccccc1	i
Cc1cc(NC(=O)c2cccc(-c3cc4ccccc4oc3=O)c2)ccc1Br	i
COc1ccc(N(CC(=O)N2CCN(c3cc(Cl)ccc3C)CC2)S(C)(=O)=O)cc1	i
CCCS(=O)(=O)c1ccc(COc2ccc(NC(C)=O)cc2)cc1	i
Cc1c(Cl)cccc1NC(=S)N1CCCC(CO)C1 (stereo not drawn)	i
Cc1ccc(C(=O)N2CCN(C(c3ccccc3)c3ccccc3)CC2)o1	i
S=c1[nH]nc(CN2CCOCC2)n1-c1ccc(Cl)cc1	i
CC1(C(=O)N2CCN(C/C=C/c3ccccc3)CC2)CC1(Cl)Cl (stereo not drawn)	9%
CCn1c(CNC(=O)c2ccccc2Cl)nnc1SCC(=O)Nc1cccc(C(=O)OC(C)C)c1	i
CC(=O)Nc1ccc(C(=O)Nc2ccc(C)cc2C)cc1	i
CC1(C)Cc2c(sc(N)c2C(=O)O)CO1	i
COc1ccc(-c2n[nH]c(=S)n2Cc2ccccc2)cc1OC	i
O=C(Nc1cccnc1)c1ccc(S(=O)(=O)N2CCCCC2)cc1	i
Cc1c(NC(=O)CCc2ccc(C3CC3C)o2)c(=O)n(-c2ccccc2)n1C (stereo not drawn)	i
CC(NC(=O)NC12CC3CC(CC(C3)C1)C2)c1ccc2c(c1)OCO2 (stereo not drawn)	5%
CCCNC(=O)C(=O)Nc1cccc(Cl)c1Cl	19%
COC(=O)Cc1c(C)c2ccc(OCC(=O)c3ccc(N4CCCC4)cc3)c(C)c2oc1=O	2%
CC1CCN(S(=O)(=O)c2ccc(NC(=O)c3sc4ccccc4c3Cl)cc2)CC1	i
Cc1cc(C)c2c(CC(=O)Nc3ccccc3Cl)coc2c1	0%
CCCN1C(=O)C(O)(CC(=O)c2ccc(F)cc2)c2ccccc21 (stereo not drawn)	i
O=C(/C=C/c1cccc(C(F)(F)F)c1)Nc1cccc(Br)c1	1.4µg/mL*
Cc1ccc(C(=O)NC(=S)Nc2ccc(I)cc2C(F)(F)F)c(Cl)c1	i
COc1ccccc1OCCOCCOc1ccc(F)cc1	1%
CCOc1cccc(OCCOCCN2CCCCC2)c1	i
COc1ccc(OCCCOc2ccc(OC)cc2)cc1	9%
O=S(=O)(c1ccc(Cl)cc1)N1CCN(Cc2ccsc2)CC1	2%
O=Cc1ccc(OCc2cccc(F)c2)c(Br)c1	2%
Cc1c(C)c2ccc(Oc3ccc([N+](=O)[O-])cc3C(F)(F)F)cc2oc1=O	i
COc1cc(OC)c(NC(=O)Nc2ccc(OC)c(OC)c2)cc1Cl	i
CCOc1ccc(/C=C2\SC(=S)N(CC(=O)NC34CC5CC(CC(C5)C3)C4)C2=O)cc1	i
COC(=O)c1c(NC(=O)CC2Nc3cccc4cccc(c34)NC2=O)sc(C)c1C (stereo not drawn)	?
COc1ccc(CCNC(=O)c2ccc(NS(C)(=O)=O)cc2)cc1	i
COc1cc(C)nc(N(CCO)CCO)n1	3%
N#C/C(=C\c1ccc(N2CCOCC2)cc1)C(N)=S	0%
Cc1ccc([N+](=O)[O-])cc1NC(=O)COc1ccc2c(c1)CCCC2	?
Cc1nn2c3ccccc3nc2n(Cc2ccccc2)c1=O	i

Additional compounds follow:
Structure	Mtb H37Rv
O=C(O)CCNS(=O)(=O)c1ccc2c(c1)C(=O)c1ccccc1-2	i
COC(=O)Cc1c(C)nc2nc(-c3ccccc3)[nH]n2c1=O	2%
Cc1ccc(Cl)cc1N(CC(=O)N1CCCC1)S(C)(=O)=O	i
COc1ccc(S(=O)(=O)Nc2nc(-c3ccc(F)cc3)cs2)cc1	i
COc1ccccc1CC(=O)Nc1ccc(-c2noc(COc3ccc(Br)cc3)n2)cc1	i
O=C(c1ccc([N+](=O)[O-])cc1)c1cc2ccccc2o1	i
COc1ccc(C(C)NC(=O)c2ccc(C)s2)cc1 (stereo not drawn)	i
Cc1cc2c(cc1C)NC(CC(=O)Nc1ccc(F)c(Cl)c1)C(=O)N2 (stereo not drawn)	1%
CCOC(=O)c1[nH]c(C)c(/C(O)=C2\C(=O)C(=O)N(CCN(CC)CC)C2c2ccccc2OC)c1C (stereo not drawn)	i
COc1ccc(OC)c(NC(=S)NN2CCOCC2)c1	i
CCCNC(=O)c1ccc(COc2ccc(C(C)(C)C)cc2)o1	i
CN(C(=O)c1cc2ccccc2oc1=O)C1(C)CCS(=O)(=O)C1 (stereo not drawn)	i
COC(=O)c1ccc(NC(=O)c2ccc(OC)c(I)c2)cc1	i
Cc1cc(S(=O)(=O)NCCC(=O)O)ccc1F	i
O=[N+]([O-])c1ccc(NCCNS(=O)(=O)Cc2ccccc2)c(C(F)(F)F)c1	i
O=C(O)C1CCCCC1C(=O)Nc1ccc(F)cc1F (stereo not drawn)	i
S=C(Nc1ccc2nc(-c3ccco3)c(-c3ccco3)nc2c1)N1CCCCCC1	2%
O=C(Nc1ccc2c(c1)C(=O)N(CC1CCCO1)C2=O)C(c1ccccc1)c1ccccc1 (stereo not drawn)	i
COc1ccc(C(=O)NCC(=O)Nc2ccc(F)cc2)cc1OC	i
Cc1nc(CSc2nc3sc4c(c3c(=O)n2-c2ccccc2)CCCCC4)cs1	i
CC(=O)Nc1ccccc1C(=O)OCc1ccccc1F	3%
CCC(NC(=O)c1ccccc1O)c1ccccc1 (stereo not drawn)	3%
c1ccc(-c2noc(CSc3nc4ccccc4[nH]3)n2)cc1	i
O=C(NCCc1ccccc1)C(=O)Nc1cc(Cl)cc(Cl)c1	i
COc1ccc(OC)c(S(=O)(=O)Nc2ccc(F)c(Cl)c2)c1	i
Brc1ccccc1Cn1c(-c2cscn2)nc2ccccc21	i
CC1CCCCC1NC(=O)CSc1nc2ccccc2[nH]1 (stereo not drawn)	i
O=C(Nc1ccc(Cl)cc1C(F)(F)F)c1sc2ccccc2c1Cl	i
O=C(CCC(=O)OCc1ccccc1)Nc1cccc2ccccc12	5%
COc1ccc(NC(=O)c2ccco2)cc1NC(C)=O	i
Cc1nn(C(C)(C)C)c(OC(=O)c2cccc([N+](=O)[O-])c2)c1Sc1ccccc1	i
Cc1cc(Cl)ccc1OC(C)C(=O)Nc1cccc(C(=O)Nc2ccco2)c1 (stereo not drawn)	37%
Cc1c(Br)ccc(OCCCC(=O)O)c1C	i
CCc1cccc(C)c1NC(=O)COc1ccccc1C(=O)Nc1cccc(Cl)c1C	i
CCOc1ccccc1-c1noc(C)n1	i
CCCNC(=O)c1ccccc1NC(=O)c1ccc(Cl)cc1Cl	7%

Four of the compounds above, field by field:
Cc1nn(C(C)(C)C)c(OC(=O)c2cccc([N+](=O)[O-])c2)c1Sc1ccccc1
- Mtb H37Rv = i
Cc1cc(Cl)ccc1OC(C)C(=O)Nc1cccc(C(=O)Nc2ccco2)c1 (stereo not drawn)
- Mtb H37Rv = 37%
Cc1c(Br)ccc(OCCCC(=O)O)c1C
- Mtb H37Rv = i
CCc1cccc(C)c1NC(=O)COc1ccccc1C(=O)Nc1cccc(Cl)c1C
- Mtb H37Rv = i

(list continues)
Structure	Mtb H37Rv
O=C1c2ccccc2C(=O)N1CCCn1c2ccc(Br)cc2c2nc3ccccc3nc21	1%
Cc1ccc(-c2nnc(SCC(=O)Nc3ccc(I)cc3C)o2)cc1	i
CS(=O)(=O)N(CC(=O)N1CCN(Cc2ccccc2)CC1)c1ccccc1Br	i
C=CCC1(N(C(C)=O)c2ccccc2)CCCCC1	8%
COc1ccc(Cl)cc1/C=C(/C#N)c1cccc([N+](=O)[O-])c1	i
O=C(COc1ccc2ccccc2c1)NC(c1ccccc1)c1ccccc1	i
NS(=O)(=O)c1ccc(CCNC(=O)c2cc(Cl)ccc2Cl)cc1	i
Fc1ccccc1CN1CCN(c2ccccc2F)CC1	i
CCOc1ccc(C(C)NC(=O)Nc2ccccc2C(=O)OC)cc1 (stereo not drawn)	1%
Cc1ccc(C(=O)O)cc1S(=O)(=O)N(C)CCO	i
COc1ccc(-n2nnnc2SCC(=O)NC(C)(C)C)cc1	i
Cc1cccc(N2CCN(c3nnc(C(F)(F)F)s3)CC2)c1	3%

3 structures from above, ordered by number of heavy atoms, smallest number first:
Structure	Mtb H37Rv
C=CCC1(N(C(C)=O)c2ccccc2)CCCCC1	8%
Cc1ccc(-c2nnc(SCC(=O)Nc3ccc(I)cc3C)o2)cc1	i
O=C(COc1ccc2ccccc2c1)NC(c1ccccc1)c1ccccc1	i

(more compounds)
Structure	Mtb H37Rv
Cc1ccc(N(Cc2ccc(C(=O)Nc3cccc([N+](=O)[O-])c3)cc2)S(C)(=O)=O)cc1C	i
O=C(CN1C(=O)C2C3CCC(C3)C2C1=O)Nc1ccc([N+](=O)[O-])cc1 (stereo not drawn)	i
O=C(CCC(=O)Nc1cccc(C(F)(F)F)c1)Nc1cccc(C(F)(F)F)c1	i
CC1CN(C(=S)Nc2cccc(F)c2)CC(C)O1 (stereo not drawn)	i
Fc1ccccc1N1CCN(Cc2nc(-c3ccc(Cl)cc3Cl)no2)CC1	i
O=S(=O)(c1ccc(C2CCCCC2)cc1)N1CCN(c2ccccc2F)CC1	i
COC(=O)C#CCN1C(=O)c2ccccc2C1=O	i
Clc1ccc(CSc2ncccn2)cc1Cl	i
COc1cc(Cl)c(C)cc1NC(=O)COc1ccc(Cl)cc1Br	i
COc1ccc(S(=O)(=O)Nc2cc(C)c(O)cc2C(C)C)cc1	1%
COc1ccccc1C(=O)Nc1sc(-c2ccccc2)cc1C(=O)O	39%
Cc1ccc(Cl)cc1N(CC(=O)N1CCCCC1)S(C)(=O)=O	i
COc1ccc(Cc2nnc(NC(=O)C3CCCCC3)s2)cc1	i
O=C(Nc1ccc(Cl)c(C(F)(F)F)c1)C(=O)N1CCCCC1	4%
COc1cccc(C2CC(=O)C3=C(C2)Nc2ccccc2NC3c2cccc(F)c2)c1 (stereo not drawn)	i
CC(CC(=O)Nc1ccccc1C#N)c1ccccc1 (stereo not drawn)	i
CCn1c(=O)[nH]c2cc(C(=O)NCCc3ccccc3)ccc2c1=O	i
O=C(CN1CCCCC1)NNc1c2ccccc2nc2ccccc12	0%
O=C(CCN1CCOCC1)N1N=C(c2ccccc2)CC1c1ccco1 (stereo not drawn)	i
Cc1nc2cc(NC(=O)N3CCC(c4ccccc4)C3)ccc2n1C (stereo not drawn)	i
Cc1cc(C)c(NC(=O)c2ccccc2C)c([N+](=O)[O-])c1	i
CCOc1cc(C(=O)N2CCC(C(N)=O)CC2)cc(OCC)c1OCC	i
Cc1cccc(-c2noc(-c3cccc(I)c3)n2)c1	i
CCc1ccc(OC(C)c2nnc(SCC(=O)Nc3ccccc3C(C)C)n2C)cc1 (stereo not drawn)	i
O=C(NCc1ccco1)c1cccc(NC(=O)c2ccc(Br)cc2)c1	i
CC(C)CC(=O)NC(=S)Nc1cc(C(F)(F)F)ccc1N1CCOCC1	i
CC1(C)Cc2c(sc3nc(Cc4c(Cl)cccc4Cl)n(N)c(=O)c23)CO1	i
COc1cccc2cc(C(=O)Oc3ccc([N+](=O)[O-])cc3)c(=O)oc12	i
Nc1ncnc(N(Cc2ccccc2)c2ccccc2)c1[N+](=O)[O-]	i
Cc1ccc(OCCc2nc3ccccc3[nH]2)cc1	i
C/C(O)=C/c1nc2ccccc2n(-c2ccccc2)c1=O	i
CCC(=O)c1ccc(OC(=O)c2ccc(F)cc2)cc1	i
COc1ccc(-c2cc(=O)oc3c(C)c(OC(=O)c4cccc(OC)c4)ccc23)cc1	i

Some of the compounds tested; count on the stated rates, not on these rows.
